High-throughput results deposited in PubChem BioAssay by several laboratories.
HNF4A DNA FP: change in binding of human HNF4 alpha to DNA; P41235; HNF4a-FITC DNA binding, fluorescence polarization, 1 h; activity change, % at 10 µM; hit rate 0.3% among 360,000; in the data active = activity change above about 30%, passing the limit was not always enough;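 note: controls were the assay level and a saturating level of protein; the project sought stronger binding though the title names inhibitors; some compounds called inactive have numbers as strong as hits; positive values seem to mean higher polarization but the record does not say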
Target sequence (P41235 whole entry, looked up): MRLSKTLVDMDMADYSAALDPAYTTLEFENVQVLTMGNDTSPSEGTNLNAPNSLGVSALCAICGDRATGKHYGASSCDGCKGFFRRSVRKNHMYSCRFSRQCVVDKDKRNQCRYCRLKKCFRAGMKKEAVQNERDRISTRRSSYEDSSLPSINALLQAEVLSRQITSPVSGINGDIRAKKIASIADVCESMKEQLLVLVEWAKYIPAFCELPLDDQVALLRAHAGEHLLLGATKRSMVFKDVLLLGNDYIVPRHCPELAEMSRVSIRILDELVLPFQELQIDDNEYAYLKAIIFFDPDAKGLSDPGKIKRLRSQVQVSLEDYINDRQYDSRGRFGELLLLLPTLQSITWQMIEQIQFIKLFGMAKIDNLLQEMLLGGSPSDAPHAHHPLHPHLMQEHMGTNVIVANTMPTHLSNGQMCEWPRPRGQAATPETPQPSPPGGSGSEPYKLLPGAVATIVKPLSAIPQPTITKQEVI
Beta2AR agonist: human beta-2 adrenergic receptor agonism by FAP. response, % (no concentration beside the values). P07550. Am2.2-beta2AR cells, FAP receptor internalization, flow cytometry; reference of the scale not given here. hit rate 0.43% among 340,000;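 active = response above a set limit, near 3 SD of response in nonfluorescent compounds, cut at about 42% in these data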;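 note: stock transfer was 100 nL into about 11 µL; a reference agonist was the positive control; negative values mostly stem from fluorescent compounds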
Target sequence (P07550 whole entry, looked up): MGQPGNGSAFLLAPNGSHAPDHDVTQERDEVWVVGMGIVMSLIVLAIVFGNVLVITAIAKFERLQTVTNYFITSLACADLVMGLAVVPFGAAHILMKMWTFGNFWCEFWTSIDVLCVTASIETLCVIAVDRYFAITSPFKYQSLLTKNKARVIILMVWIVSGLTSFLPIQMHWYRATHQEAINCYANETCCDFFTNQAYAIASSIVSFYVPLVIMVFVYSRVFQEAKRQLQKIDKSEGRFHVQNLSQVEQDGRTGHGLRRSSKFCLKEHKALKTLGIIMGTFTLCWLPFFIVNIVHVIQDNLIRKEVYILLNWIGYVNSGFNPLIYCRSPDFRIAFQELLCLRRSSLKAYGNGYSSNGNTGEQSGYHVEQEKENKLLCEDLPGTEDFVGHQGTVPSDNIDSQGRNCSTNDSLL
ALR H2O2 inh: blocks human ALR sulfhydryl oxidase activity; purified ALR, DTT oxidation, H2O2 HRP-luminol luminescence; inhibition, % (no concentration beside the values); hit rate 3.8% among 290,000; AID 485317;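 active = mean and each replicate at 75% or more; inconclusive = only one of the two met; inactive = neither met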;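 note: stock transfer was 7.5 nL into about 7.5 µL; 0% = neutral wells and 100% = wells with inactivated enzyme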
Target sequence (P55789 whole entry, looked up): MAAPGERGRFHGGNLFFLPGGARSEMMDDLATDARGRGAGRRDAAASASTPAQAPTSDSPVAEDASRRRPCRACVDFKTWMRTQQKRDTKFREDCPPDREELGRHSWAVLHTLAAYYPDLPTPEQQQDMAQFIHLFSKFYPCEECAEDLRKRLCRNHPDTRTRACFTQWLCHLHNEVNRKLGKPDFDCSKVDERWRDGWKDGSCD
LANA-H2B inh: blocks KSHV LANA binding to histone H2A/H2B | Q9QR71 | cell-free LANA-H2A/H2B peptide, fluorescence polarization | inhibition, % (test concentration not listed) | hit rate 0.6% among 320,000 | AID 2629; in the data active = inhibition mostly above about 10%, no sharp cut-off; inactive = mostly below about 6.7%;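 note: stock transfer was 7.5 nL into about 10 µL; 0% = median of vehicle wells and 100% = median of positive control wells; one replicate is shown; the record names a cut of 25% in any replicate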
Vif TR-FRET: HIV-1 Vif–A3G interaction blockers – biochemical, TR-FRET, GST-Vif 1-94, biotin-A3G peptide, dose response retest, primary screen (AID 1117319) | hit rate 0.57% among 260,000 | inhibition, %; hits with a dose series show IC50 in µM | TR-FRET GST-Vif / biotin-A3G peptide binding; higher % means a stronger effect; test concentration not given here; strong numbers were not always called active;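 active = above the screen mean plus three standard deviations and confirmed in dose response; inconclusive = results disagree or hit not tested in dose response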;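 note: Vif residues 1-94 fused to GST binding biotinylated APOBEC3G peptide 110-148; 0% = full assay without inhibitor and 100% = GST in place of GST-Vif; retest series ran down from 100 µM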
RanGTP-Imp inh: disruptors of Ran-importin-beta complex formation – biochemical, FRET, CFP-Ran, YFP-importin-beta, homogeneous, primary screen; AID 2216; hit rate 1.1% among 300,000; cell-free CFP-Ran/YFP-importin-beta FRET ratio; inhibition, % (no concentration beside the values);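 active = most replicates above 15%; inconclusive = exactly half above 15%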;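 note: 0% = DMSO wells and 100% = Ran loaded with GDP instead of GTP; wells of about 40 µL received 100 nL stock; the first replicate is given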
Calb FLC: affects C. albicans growth with fluconazole | C. albicans CaCi-2 (fluconazole-resistant clinical isolate) + fluconazole, Alamar Blue growth, 48 h | growth inhibition, % (no concentration beside the values) | hit rate 0.57% among 300,000;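 active = most replicates above 75%; inconclusive = exactly half above 75%; inactive = most below 75%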;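 note: all wells also contain fluconazole at 8 µg/ml as a sub-toxic cotreatment; 0% = median of DMSO wells and 100% = median of geldanamycin control wells; wells of about 8 µL received 7.5 nL stock; the first replicate is given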
* hit, by the source's call; ? = inconclusive; · = not tested or not shown.

SMILES	HNF4A DNA FP	Beta2AR agonist	ALR H2O2 inh	LANA-H2B inh	Vif TR-FRET	RanGTP-Imp inh	Calb FLC
COc1cc(Nc2ccc(S(=O)(=O)N3CCN(C)CC3)cc2[N+](=O)[O-])cc(OC)c1	1.6	-1	-15	-0.5	3%	1.3	·
O=C(CSC1=NS(=O)(=O)c2cc(F)ccc2N1)NCc1ccc(F)cc1	-2.2	-5	1	0.0	6%	-5.8	7
CC(=O)NC(Cc1ccccc1)C(=O)NC1CCN(C(=O)c2cnccn2)CC1 (centres undefined)	-3.5	0	0	3.5	28%	6.3	-10
CN=C(NC1CCCCC1)c1ccc([N+](=O)[O-])cc1	-3.7	-4	-25	-2.1	·	1.4	-13
Cc1cc(OCC(=O)NCCc2c[nH]c3ccccc23)c2c(C)cc(=O)oc2c1	-1.7	-14	-12	-2.2	·	5.1	3
COc1ccc(CNC(=O)c2cc(C3CC3)nc3c2cnn3C(C)C)cc1OC	0.1	12	-3	-3.0	-9%	·	·
Cc1cc2c(NCC(C)O)ncnc2s1 (centres undefined)	3.0	6	10	-1.9	8%	2.6	3
O=[N+]([O-])c1ccc(-c2ccc(/C=N/Nc3nc(NCc4ccccc4)nc(N4CCOCC4)n3)o2)cc1	36	-46	-1	-1.9	0%	-68	10
COc1cccc(CNC(=O)c2cc(=O)[nH]c3ccc(S(=O)(=O)N4CCOCC4)cc23)c1	0.8	2	-4	-1.6	-3%	·	·
O=C(Nc1cc(Cl)ccc1Cl)P(=O)(O)c1ccccc1	4.0	-3	·	·	-9%	·	·
CC1CCCCC1NC(=O)CSc1nnnn1-c1ccccc1 (centres undefined)	-5.7	-2	-8	-2.1	5%	-0.9	-13
Cc1cc(OCC(=O)NCCO)ccc1Cl	-3.8	4	0	2.3	8%	-1.8	-11
CCCCNc1ccc(C(CC(N)=O)NC(=O)Cc2cccc3ccccc23)cc1[N+](=O)[O-] (centres undefined)	10	-3	5	-4.9	·	0.4	-3
CN(c1ccccc1)S(=O)(=O)c1ccc(NC(=S)Nc2ccccc2)cc1	1.4	5	-7	-4.8	5%	2.8	6
Cc1nc(N2CCN(c3ccccn3)CC2)c2c(C)c(C(=O)Nc3c(F)cc(F)cc3Br)sc2n1	0.2	8	-7	-1.1	·	0.1	-1
CC(=O)Cn1c(N2CCC(Cc3ccccc3)CC2)nc2c1c(=O)[nH]c(=O)n2C	-0.5	4	·	-2.8	2%	3.5	-4
O=C(C1CCN(S(=O)(=O)c2ccccc2[N+](=O)[O-])CC1)N1CCOCC1	-0.8	6	-4	-3.5	-6%	0.7	-2
COc1ccc(N(CC(=O)Nc2ccc(Cl)cc2)S(=O)(=O)c2c(C)n[nH]c2C)cc1	1.8	-1	1	3.1	·	0.9	-1
CSc1ccc(C(=O)C2CCCN(Cc3cccn3-c3cccnc3)C2)cc1 (centres undefined)	-1.2	70*	-4	2.5	?	4.3	5
CC(=O)c1cccc(NC(=O)CNC(=O)Cc2cccc3ccccc23)c1	0.1	-1	-4	8.5	-1%	·	·
COc1ccc(CCC2(C)NC(=O)N(C(C)C(=O)Nc3ccccc3F)C2=O)cc1 (centres undefined)	-1.6	7	1	-1.3	-5%	·	·
CCOC(=O)c1ccc(N2C(=O)C(O)=C(C(C)=O)C2c2ccc([N+](=O)[O-])cc2)cc1 (centres undefined)	1.6	6	13	-2.4	-6%	6.7	-45
CCc1ccc(NC(=O)CCc2c(C)nn(-c3ccc(N4CCCCC4)nn3)c2C)cc1	-6.3	-7	-10	-4.1	·	1.8	-1
Cn1nnnc1SCc1ccc(Cl)cc1	2.1	4	·	0.3	-7%	1.7	-8
CCOc1ccc(-c2nonc2NC(=O)c2ccco2)cc1	5.0	-1	-2	1.5	·	-4.6	-3
CSc1ncccc1C(=O)N1CCCC(Nc2ccc(C)c(C)c2)C1 (centres undefined)	2.6	2	99*	2.4	·	-1.1	-11
CC1(C)Cc2c(ccc3ccccc23)C2=C(C(=O)N3CCCC3)C(=O)C(=O)N21	0.3	5	·	·	-8%	4.4	26
COP(=O)(OC)C(Nc1ccc(Cl)cc1)c1ccccc1 (centres undefined)	-0.2	-1	52	-1.5	·	2.1	2
CC(C)Oc1ccc(CN2CCCC(CO)(Cc3ccc(F)cc3)C2)cc1 (centres undefined)	4.6	37	1	-1.7	·	?	-27
CCCN1CCCc2ccccc21	1.5	1	0	-2.3	4%	-2.9	-21
N#Cc1cccc(-n2nnnc2-c2ccc3c(c2)OCO3)c1	2.1	6	0	2.6	5%	1.0	3
Cc1cccc(C(=O)Nc2ccc(O)cc2)c1	0.7	-5	99*	0.4	0%	2.2	2
NC(=O)c1cccc(NC(=O)CCCCC(=O)Nc2cccc(C(N)=O)c2)c1	0.1	9	0	-4.7	-3%	?	9
Cc1cc(Cl)nc2ccc(Cc3ccc4nc(Cl)cc(C)c4c3)cc12	3.6	3	-23	-0.1	-38%	-5.9	-2
CCN1CCN(Cc2ccc(NC(=O)c3ccc(C)c(NC(=O)c4cc(-c5ccc(Br)cc5)n[nH]4)c3)cc2C(F)(F)F)CC1	-1.2	18	-25	1.2	·	3.0	37
CCOC(=O)c1ccc(NC(=O)N2CCN(CCc3ccccc3)CC2)cc1	1.4	23	-15	3.0	-1%	4.4	-6
COc1ccc(N(CC(=O)NCc2ccccc2)C(=O)Cn2nnc(-c3ccccc3F)n2)cc1OC	-2.4	-1	2	-16	2%	0.4	?
Cc1c(C(=O)O)oc2ccc(S(=O)(=O)N(CC(C)C)CC(C)C)cc12	-2.6	7	62	-2.3	-3%	·	·
CCN1C(=O)[C@H]2[C@@H](c3ccc(-c4cccc(Cl)c4)c(OC)c3)N3CCCC[C@@]3(C(=O)OC)[C@H]2C1=O	-3.6	3	4	-6.5	·	·	·
Cc1nc2c3ccccc3nc(NNC(=O)CCC(=O)NCCC(C)C)n2n1	1.9	7	·	·	5%	3.4	1
COc1cc(C)c(NC(c2ccccc2)c2ccccc2)cc1OC	2.9	6	·	0.9	-5%	1.1	39
Cc1ccc(C(=O)c2coc3ccc(O)c(CN(C)C)c23)cc1	-5.7	-7	3	-0.8	·	-2.3	1
O=C(COC(=O)C1C2CC3OC(=O)C1C3C2)Nc1ccc(Cl)cc1 (centres undefined)	1.3	-4	1	-2.9	·	-2.9	-5
N#Cc1ccc(COC(=O)c2cnc(Cl)c(Cl)c2)cc1	3.2	16	-4	-1.7	-3%	?	2
COc1ccc(NC(=O)c2ccc(NS(=O)(=O)c3cccc4cccnc34)cc2)cc1	0.8	11	2	-7.5	5%	-0.5	3
CCOc1ccc(N(CC(=O)N2CCOCC2)S(=O)(=O)c2ccc(SC)cc2)cc1	-1.9	-9	-3	2.5	·	2.2	2
Cc1ccc(/C=N/n2c(-c3ccc(Cl)cc3)n[nH]c2=S)o1	-0.2	2	7	-3.3	4%	-1.7	-15
CCN(CC)S(=O)(=O)c1ccc(OC(C)C)c(NC(=O)c2c3c(nc4ccccc24)CCN(Cc2ccccc2)C3)c1	-2.8	26	-3	-6.2	·	2.9	-6
CC(C)(C)n1cnc2cc(NCc3ccc(Br)cc3)ccc21	4.1	-5	39	-4.4	2%	23*	36
COc1ccc(S(=O)(=O)N2CCCC2CNC(=O)C(=O)NCCc2ccccc2)cc1 (centres undefined)	-0.1	4	-3	-8.3	2%	0.9	-13
N#Cc1ccc(N[C@@H]2CCN3C(=O)c4ccccc4[C@@H]3C[C@H]2O)cc1	0.2	9	·	·	7%	·	·
Cc1cc(=O)[nH]c2c1c(C)nn2C1CCCC1	-2.1	4	1	-5.9	2%	·	·
CN(C)CCCNc1oc(-c2ccc(Cl)cc2)nc1S(=O)(=O)c1ccccc1	-1.7	26	1	1.9	·	·	·
CC(=O)N1c2ccc(S(=O)(=O)NCC3CCC(C(=O)Nc4ncccc4C)CC3)cc2CC1C (centres undefined)	1.8	-7	1	4.6	·	1.5	2
S=C(NCCc1ccccc1)Nc1ccc(Br)cn1	-1.5	-7	1	2.2	·	·	-20
O=C(CCCCCN1C(=O)[C@@H]2Cc3ccccc3CN2C1=O)Nc1ccccc1Cl	1.5	2	-20	5.5	·	-0.7	-3
COC(=O)CSc1nnc(NC(=O)C2CC(=O)N(c3ccc(F)cc3)C2)s1 (centres undefined)	4.3	6	3	-5.5	1%	-1.0	3
CN=C(Nc1ccccc1)SC1CC(=O)N(c2ccc(C(=O)OC)cc2)C1=O (centres undefined)	1.6	2	2	5.0	4%	-1.5	20
N#Cc1cc([N+](=O)[O-])ccc1NC(=O)COC(=O)CCC1CCCCC1	·	·	·	0.7	8%	-2.7	31
CCCCOCCCn1cnc2c([nH]c3cc(OC)ccc32)c1=O	0.8	1	-3	2.8	?	0.7	-10

Filtered by structure: the compounds so far with a thiophene ring, fused or not
SMILES	HNF4A DNA FP	Beta2AR agonist	ALR H2O2 inh	LANA-H2B inh	Vif TR-FRET	RanGTP-Imp inh	Calb FLC
Cc1cc2c(NCC(C)O)ncnc2s1 (centres undefined)	3.0	6	10	-1.9	8%	2.6	3
Cc1nc(N2CCN(c3ccccn3)CC2)c2c(C)c(C(=O)Nc3c(F)cc(F)cc3Br)sc2n1	0.2	8	-7	-1.1	·	0.1	-1

The results go on.
SMILES	HNF4A DNA FP	Beta2AR agonist	ALR H2O2 inh	LANA-H2B inh	Vif TR-FRET	RanGTP-Imp inh	Calb FLC
CCN1C(=O)C2C(C1=O)N1C(c3ccccc3)C3C(=O)N(CC)C(=O)C3N1C2c1ccccc1 (centres undefined)	-1.3	-8	-3	8.7	-4%	4.4	-1
Cc1cc(C)n(-c2nc3ccccc3nc2NCCc2ccccc2)n1	-0.3	3	-6	1.6	-1%	-0.1	-6
CN(CC(=O)Nc1c(Cl)cccc1Cl)C(=O)Cc1cccs1	2.1	9	-11	-1.0	2%	·	·
O=C(COC(=O)COc1ccc(Cl)cc1)NCCCc1ccccc1	5.0	-2	-3	1.3	·	·	·
Cc1cccc(NS(=O)(=O)c2cccc(C(=O)N3CCCC(C(F)(F)F)C3)c2)c1 (centres undefined)	1.6	·	2	-7.0	-5%	1.7	-10
CC1=CC(C)(C)N(C(=O)C(C)N2C(=O)c3ccccc3C2=O)c2ccc(C)cc21 (centres undefined)	-3.3	1	-44	3.7	2%	-1.2	5
O=c1c(-c2ccc(Br)cc2)[n+]([O-])c2ccccc2n1OCc1ccccn1	1.1	-16	-4	-2.1	·	4.4	1
CCCC1=NCCn2cccc21	10	9	·	-0.6	10%	11	1
COc1cc(/C=C2/SC(=O)N(Cc3ccccc3)C2=O)ccc1OCc1ccncc1	-1.5	-4	-8	3.2	18%	1.2	-3
COC(=O)N1C(=O)[C@](CC(C)C)(c2ccccc2)N1C(=O)OC	0.2	5	70	5.2	·	2.4	-2
COc1ccc(Cc2nnc(NC(=O)CSc3ccc(C)cc3)s2)cc1	4.9	-6	-13	0.4	8%	-0.4	-12
Cc1ccc(S(=O)(=O)N(C)C)cc1NC(=O)CSc1nc2ccccc2c(=O)n1CC1CCCO1 (centres undefined)	0.8	6	1	-1.7	-6%	-2.4	-1
COc1ccccc1CN(Cc1nc2ccccc2c(=O)[nH]1)S(=O)(=O)c1ccc2ccccc2c1	0.6	-2	·	-1.5	22%	6.9	9
COc1ccc(CC(=O)Nc2cc(S(=O)(=O)N3CCCCC3)ccc2C)cc1	-12	-7	·	·	-2%	·	·
COc1ccc(NC(=O)CN(C)C(=O)CC2CCCC2)cc1	-1.2	-5	1	-5.3	6%	4.2	-4
CC(CNC(=O)CCC(=O)N1CCOc2ccccc21)c1ccccc1 (centres undefined)	-0.8	7	1	1.1	·	-0.3	3
O=C(COc1ccccc1)N1CCNC1=O	1.8	-6	-5	7.0	1%	-0.4	30
CCc1ccc(CNC(=O)C(=O)NCC2CCCO2)cc1 (centres undefined)	-1.9	-4	3	0.1	-4%	2.6	-4
